Screens as filed in PubChem.
UUG fidelity: modulators of start codon recognition fidelity in yeast; S. cerevisiae UUG-firefly luciferase reporter, luminescence/redox ratio; activity score, % at 18.7 µM; hit rate 0.13% among 350,000;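 active means replicate mean at a twofold rise or more, about +100% in these data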;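 further: firefly luciferase made from a UUG start codon reports start codon fidelity; reporter light over untreated wells divided by growth signal over untreated wells; some hits fall short of that in this replicate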
HIV Env fusion: blocks HIV Env-driven cell-cell fusion | HeLa-JRFL Env/CEM21 cell fusion, luciferase | inhibition, % at 12.3 µM | hit rate 1.1% among 360,000 | AID 651610;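 active means mean replicate inhibition score of at least 50 and every replicate individually at or above 50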;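 further: 0% = plate neutral controls and 100% = maraviroc near 300 nM; one replicate is shown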
* = called active by the depositor; [ ] = dose if it differs, or a comment.

SMILES	UUG fidelity	HIV Env fusion
C[C@H](CO)N1C[C@H](C)[C@@H](CN(C)C(=O)C2CC2)Oc2ncc(C#Cc3ccccc3)cc2C1=O	-3	-10[16.7 µM]
CC(C)NC(=O)N(C)C[C@H]1Oc2ccc(NS(=O)(=O)c3cn(C)cn3)cc2CC(=O)N([C@@H](C)CO)C[C@@H]1C	-3	4[16.7 µM]
CCC(=O)N(C)C[C@H]1Oc2cc(C#CCC3CCCC3)ccc2S(=O)(=O)N([C@@H](C)CO)C[C@H]1C	18	-6[16.7 µM]
COCc1cn(CC[C@@H]2CC[C@@H](NC(=O)Nc3ccc(OC)cc3)[C@@H](CO)O2)nn1	6	1[16.7 µM]
COC(=O)C[C@H]1CC[C@H]2[C@H](COc3ccc(NS(C)(=O)=O)cc3C(=O)N2C)O1	-17	-2[16.7 µM]
O=C(C[C@H]1C[C@H]2c3cc(NC(=O)Cc4ccncc4)ccc3O[C@H]2[C@H](CO)O1)NCc1ccc(-c2ccccc2)cc1	0	11[16.7 µM]
CNC[C@@H]1OCCCC[C@H](C)Oc2ccc(NC(=O)Cc3ccccc3)cc2C(=O)N([C@@H](C)CO)C[C@H]1C	16	2[16.7 µM]
CO[C@@H]1CN(C)C(=O)c2cc(NC(=O)c3nc4ccccc4s3)ccc2OC[C@H](C)N(Cc2ccncc2)C[C@H]1C	1	11[16.7 µM]
C[C@H]1CN([C@@H](C)CO)C(=O)Cc2cc(NC(=O)Nc3cccc4ccccc34)ccc2O[C@@H]1CN(C)Cc1ccc(Cl)c(Cl)c1	-5	3[16.7 µM]
O=C(NCC[C@H]1CC[C@@H](NC(=O)C2CCCC2)[C@H](CO)O1)c1cnccn1	12	8[16.7 µM]
C[C@@H]1CN([C@@H](C)CO)C(=O)c2cc(N(C)C)ccc2O[C@H]1CN(C)Cc1ccccc1	-13	-24[16.7 µM]
C[C@@H]1CCCCO[C@H](CN(C)Cc2ccccc2)[C@@H](C)CN([C@@H](C)CO)C(=O)c2cc(NC(=O)Nc3cccc4ccccc34)ccc2O1	22	-70[16.7 µM]
C[C@@H]1CN([C@@H](C)CO)S(=O)(=O)c2ccc(C#CCN(C)C)cc2O[C@H]1CN(C)Cc1ccc(F)cc1	-5	-9[16.7 µM]
C[C@H]1CN([C@@H](C)CO)C(=O)Cc2cc(NC(=O)CCC(F)(F)F)ccc2O[C@@H]1CN(C)CC1CC1	-14	-7[16.7 µM]
CCCNC(=O)Nc1ccc2c(c1)C(=O)N(C)[C@@H]1CC[C@H](CC(=O)NC)O[C@H]1CO2	-10	-21[16.7 µM]
O=C(C[C@@H]1C=C[C@H](NC(=O)Nc2ccc(C(F)(F)F)cc2)[C@@H](CO)O1)NCc1cc(F)cc(F)c1	0	3[16.7 µM]
COc1ccc(NC(=O)Nc2ccc3c(c2)C(=O)N([C@@H](C)CO)C[C@@H](C)[C@H](CN(C)S(=O)(=O)c2cn(C)cn2)OCCCC[C@H](C)O3)cc1	22	5[16.7 µM]
Cc1ccc(S(=O)(=O)N(C)C[C@H]2OCCCC[C@H](C)Oc3ccc(NS(=O)(=O)c4ccc(F)cc4)cc3C(=O)N([C@@H](C)CO)C[C@@H]2C)cc1	15	-24[16.7 µM]
C[C@@H]1CN([C@@H](C)CO)S(=O)(=O)c2ccc(C#CC3CC3)cc2O[C@@H]1CN(C)Cc1ccc(F)cc1	51	-2[16.7 µM]
COc1ccccc1C#Cc1ccc2c(c1)O[C@@H](CN(C)Cc1ccncc1)[C@H](C)CN([C@@H](C)CO)S2(=O)=O	-4	33[16.7 µM]
C[C@@H]1CN([C@@H](C)CO)C(=O)c2cc(C#CC(C)(C)O)cnc2O[C@@H]1CN(C)C(=O)CN(C)C	-7	-18[16.7 µM]
COc1cccc(NC(=O)N(C)C[C@H]2Oc3cc(C#Cc4ccc(F)cc4)ccc3S(=O)(=O)N([C@H](C)CO)C[C@H]2C)c1	0	-39[16.7 µM]
C[C@H](CO)N1C[C@H](C)[C@H](CN(C)C(=O)C2CC2)Oc2cc(-c3cccc(F)c3)ccc2S1(=O)=O	15	22[16.7 µM]
CO[C@H]1CN(C)C(=O)c2ccc(NC(=O)c3ccno3)cc2OC[C@H](C)N(S(C)(=O)=O)C[C@H]1C	-6	0[16.7 µM]

Exported comma-delimited: entries from further up.
canonical_smiles,UUG fidelity,HIV Env fusion
C[C@@H]1CN([C@@H](C)CO)S(=O)(=O)c2ccc(C#CC3CC3)cc2O[C@@H]1CN(C)Cc1ccc(F)cc1,51,-2[16.7 µM]
COc1ccccc1C#Cc1ccc2c(c1)O[C@@H](CN(C)Cc1ccncc1)[C@H](C)CN([C@@H](C)CO)S2(=O)=O,-4,33[16.7 µM]
C[C@@H]1CN([C@@H](C)CO)C(=O)c2cc(C#CC(C)(C)O)cnc2O[C@@H]1CN(C)C(=O)CN(C)C,-7,-18[16.7 µM]

Next section.
SMILES	UUG fidelity	HIV Env fusion
C[C@@H](NC(=O)C[C@H]1CC[C@@H](NC(=O)C2CC2)[C@@H](CO)O1)c1ccccc1	-2	6[16.7 µM]
CN1C(=O)c2cc(NC(=O)C3CCOCC3)ccc2OC[C@@H]2O[C@@H](CC(=O)NC3CCCC3)CC[C@@H]21	3	-8[16.7 µM]
C[C@H]1CN([C@@H](C)CO)C(=O)c2cc(NC(=O)CCC(F)(F)F)ccc2O[C@@H]1CN(C)C(=O)Nc1cccc2ccccc12	2	6[16.7 µM]
C[C@@H]1CCCCO[C@H](CN(C)S(C)(=O)=O)[C@@H](C)CN([C@H](C)CO)C(=O)c2cc(NC(=O)CCC(F)(F)F)ccc2O1	-17	-3[16.7 µM]
CCCC#Cc1cnc2c(c1)C(=O)N([C@@H](C)CO)C[C@H](C)[C@H](CN(C)C(=O)c1cccnc1)O2	-15	-12[16.7 µM]
COc1ccc(NC(=O)Nc2cccc3c2O[C@@H](CN(C)C(=O)Nc2ccc(OC)cc2)[C@@H](C)CN([C@H](C)CO)C3=O)cc1	24	-2[16.7 µM]
CCCC#Cc1ccc2c(c1)O[C@H](CN(C)C(=O)c1cnccn1)[C@H](C)CN([C@@H](C)CO)S2(=O)=O	-10	2[16.7 µM]
Cc1noc(C)c1NC(=O)N[C@@H]1CC[C@@H](CCNC(=O)C2CCCCC2)O[C@@H]1CO	-14	6[16.7 µM]
C[C@@H]1CN([C@H](C)CO)C(=O)c2cc(NS(=O)(=O)c3ccc(Cl)cc3)ccc2O[C@@H](C)CCCCO[C@@H]1CN(C)C(=O)c1ccncc1	7	-16[16.7 µM]
CC(C)NC(=O)N[C@@H]1CC[C@@H](CCn2cc(-c3ccccc3)nn2)O[C@@H]1CO	-7	-21[16.7 µM]
COc1ccc(S(=O)(=O)N(C)C[C@@H]2Oc3ccc(NC(=O)Nc4ccc(C(F)(F)F)cc4)cc3CC(=O)N([C@H](C)CO)C[C@@H]2C)cc1	-4	8[16.7 µM]
C[C@@H]1CN([C@@H](C)CO)C(=O)c2cc(-c3ccc(C#N)cc3)cnc2O[C@@H]1CN(C)Cc1cncnc1	-7	-5[16.7 µM]
C[C@@H]1CN([C@@H](C)CO)S(=O)(=O)c2ccc(C#CCN(C)C)cc2O[C@H]1CN(C)Cc1ccccc1	-4	-23[16.7 µM]
CC(C)NC(=O)Nc1ccc2c(c1)C(=O)N([C@H](C)CO)C[C@H](C)[C@H](CN(C)Cc1ccc(C(=O)O)cc1)O2	-1	-6[16.7 µM]
C[C@H]1CN([C@@H](C)CO)C(=O)c2cccc(N(C)C)c2O[C@@H]1CN(C)C(=O)Nc1ccc(C(F)(F)F)cc1	20	15[16.7 µM]
C[C@@H]1CN([C@@H](C)CO)C(=O)Cc2cc(NS(=O)(=O)c3cn(C)cn3)ccc2O[C@@H]1CN(C)Cc1ccc(C(=O)Nc2ccccc2N)cc1	-11	26[16.7 µM]
CCCN1C[C@@H](C)[C@@H](OC)CN(C)C(=O)c2ccc(NC(=O)C3CCC3)cc2OC[C@@H]1C	-11	14[16.7 µM]
CC(C)C(=O)Nc1ccc2c(c1)C(=O)N(C)[C@@H]1CC[C@H](CC(=O)N[C@H](C)c3ccccc3)O[C@H]1CO2	5	-26[16.7 µM]
C=CCOC(=O)[C@H]1[C@@H]2C(=O)O[C@@H](c3ccccc3)[C@@H](c3ccccc3)N2[C@@H](c2ccc(OCCOC(=O)[C@H]3C[C@H]4C(=O)NCC(=O)N4[C@H]3c3ccc(O)cc3)cc2)[C@]12C(=O)Nc1ccccc12	-7	-13[16.7 µM]
C[C@@H]1CCCCO[C@@H](CN(C)S(=O)(=O)c2ccc(F)cc2)[C@H](C)CN([C@@H](C)CO)C(=O)c2cc(NC(=O)C3CCCCC3)ccc2O1	5	10[16.7 µM]
C[C@H](CO)N1C[C@H](C)[C@H](CN(C)C(=O)Nc2ccc(F)cc2)Oc2ncc(-c3cccc(F)c3)cc2C1=O	12	24[16.7 µM]
CN(C)C(=O)c1ccc(-c2ccc([C@@H]3[C@@H](C#N)N(C(=O)Nc4ccccc4F)[C@H]3CO)cc2)cc1	7	-19[16.7 µM]
C[C@H]1CN([C@@H](C)CO)C(=O)c2cc(C#Cc3cccc(F)c3)cnc2O[C@H]1CN(C)CC1CCCC1	1	11[16.7 µM]
COc1cccc(NC(=O)N(C)C[C@@H]2Oc3cc(-c4ccccc4F)ccc3S(=O)(=O)N([C@@H](C)CO)C[C@H]2C)c1	7	-13[16.7 µM]

Some of these compounds in order of count of non-hydrogen atoms, ascending:
SMILES	UUG fidelity	HIV Env fusion
CCCN1C[C@@H](C)[C@@H](OC)CN(C)C(=O)c2ccc(NC(=O)C3CCC3)cc2OC[C@@H]1C	-11	14[16.7 µM]
CC(C)C(=O)Nc1ccc2c(c1)C(=O)N(C)[C@@H]1CC[C@H](CC(=O)N[C@H](C)c3ccccc3)O[C@H]1CO2	5	-26[16.7 µM]
C[C@@H]1CN([C@@H](C)CO)C(=O)Cc2cc(NS(=O)(=O)c3cn(C)cn3)ccc2O[C@@H]1CN(C)Cc1ccc(C(=O)Nc2ccccc2N)cc1	-11	26[16.7 µM]

Continued.
SMILES	UUG fidelity	HIV Env fusion
CCCCNC(=O)C1(C)CCCCN1CC(=O)c1ccc(OC)cc1 (stereo not drawn)	-4	-40
CN1C(=O)c2cc(NC(=O)Cc3ccccc3)ccc2OC[C@@H]2O[C@H](CC(=O)NCC3CC3)CC[C@@H]21	-2	-1[16.7 µM]
C[C@H](CO)N1C[C@H](C)[C@@H](CN(C)CC2CCCCC2)Oc2ccc(NC(=O)Cc3ccccc3)cc2C1=O	-3	1[16.7 µM]
C[C@H](CO)N1C[C@H](C)[C@@H](CN(C)C(=O)Nc2ccccc2)OCCCC[C@H](C)Oc2ccc(NS(=O)(=O)c3ccc(F)cc3)cc2C1=O	-6	-120[16.7 µM]
COc1ccc(S(=O)(=O)N(C)C[C@@H]2Oc3ccc(NS(=O)(=O)c4ccc(C)cc4)cc3CC(=O)N([C@H](C)CO)C[C@H]2C)cc1	14	3[16.7 µM]
C[C@@H]1CCCCO[C@H](CN(C)S(=O)(=O)c2cccs2)[C@@H](C)CN([C@H](C)CO)C(=O)c2cc(NC(=O)NC3CCCCC3)ccc2O1	-5	5[16.7 µM]
CNC(=O)C[C@@H]1CC[C@@H]2[C@H](COc3ccc(NC(=O)Nc4ccc(Cl)cc4)cc3C(=O)N2C)O1	10	7[16.7 µM]
COc1cccc(S(=O)(=O)Nc2ccc3c(c2)[C@H]2C[C@H](CC(=O)NCc4cccc(F)c4)O[C@H](CO)[C@H]2O3)c1	16	44[16.7 µM]
COC(=O)C[C@@H]1C[C@@H]2c3cc(N(C)C)ccc3O[C@@H]2[C@@H](CO)O1	-11	-15[16.7 µM]
C[C@H]1CCCCO[C@@H](CN(C)C(=O)Nc2ccccc2)[C@@H](C)CN([C@@H](C)CO)C(=O)c2cc(N(C)C)ccc2O1	41	-13[16.7 µM]
CN1CCN(C(=O)C[C@@H]2CC[C@H]3[C@@H](COC[C@H](O)CN3C(=O)c3ccccc3F)O2)CC1	-2	-14[16.7 µM]
C[C@H]1CN([C@@H](C)CO)C(=O)Cc2cc(NC(=O)C3CC3)ccc2O[C@H]1CN(C)C(=O)Nc1ccc2c(c1)OCO2	-2	12[16.7 µM]

Looked up by compound from above (2):
SMILES	UUG fidelity	HIV Env fusion
C[C@@H]1CCCCO[C@H](CN(C)S(=O)(=O)c2cccs2)[C@@H](C)CN([C@H](C)CO)C(=O)c2cc(NC(=O)NC3CCCCC3)ccc2O1	-5	5[16.7 µM]
C[C@@H]1CN([C@@H](C)CO)S(=O)(=O)c2ccc(C#CCN(C)C)cc2O[C@H]1CN(C)Cc1ccc(F)cc1	-5	-9[16.7 µM]

Additional compounds follow.
SMILES	UUG fidelity	HIV Env fusion
C[C@@H]1CCCCO[C@H](CN(C)Cc2ccc(C(=O)O)cc2)[C@H](C)CN([C@@H](C)CO)C(=O)c2cc(NC(=O)Nc3ccc4c(c3)OCO4)ccc2O1	8	-14[16.7 µM]
Cc1ccc(S(=O)(=O)Nc2ccc3c(c2)C(=O)N([C@@H](C)CO)C[C@H](C)[C@@H](CN(C)Cc2ccncc2)OCCCC[C@@H](C)O3)cc1	2	-67[16.7 µM]
Cc1noc(C)c1NC(=O)N(C)C[C@H]1OCCCC[C@@H](C)Oc2ccc(NC(=O)c3ccccc3)cc2C(=O)N([C@@H](C)CO)C[C@@H]1C	2	-27[16.7 µM]
CNC[C@H]1Oc2cc(C#CCN(C)C)ccc2S(=O)(=O)N([C@H](C)CO)C[C@H]1C	17	-8[16.7 µM]
Cc1ccc(S(=O)(=O)Nc2ccc3c(c2)C(=O)N([C@H](C)CO)C[C@H](C)[C@H](CN(C)Cc2ccncc2)OCCCC[C@@H](C)O3)cc1	-21	-17[16.7 µM]
O=C(NCC[C@H]1CC[C@@H](NS(=O)(=O)c2ccccc2)[C@@H](CO)O1)c1ccccc1F	9	9[16.7 µM]
O=C(Nc1ccc2c(c1)[C@H]1C[C@@H](CC(=O)N3CCCCC3)O[C@@H](CO)[C@H]1O2)c1cccnc1	-8	4[16.7 µM]
COc1ccccc1NC(=O)N[C@@H]1CC[C@H](CC(=O)N[C@@H](C)c2ccccc2)O[C@H]1CO	-11	-5[16.7 µM]
COc1cccc(S(=O)(=O)Nc2ccc3c(c2)OC[C@@H](C)NC[C@@H](C)[C@H](OC)CN(C)C3=O)c1	8	-14[16.7 µM]

The list is partial. The share of hits here may be higher or lower than overall.
